Source: PubChem
Mtb H37Rv: M. tuberculosis H37Rv growth inhibitors, H37Rv strain (AID 1626); 220,000 tested, 0.95% active; M. tuberculosis H37Rv growth inhibition; higher % means a stronger effect; inhibition, % at 10 µM, or IC50 in µM where a hit was titrated;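 active means confirmed in a dose series; inconclusive means inhibition above 80% but not taken into the dose series; inactive means below 80% or under 30% at every dose of the series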;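 further: bacteria incubated seven days before Alamar blue readout; 0% = bacteria only wells and 100% = bacteria with antibiotic wells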
YopH PTP inh: inhibitors of Yersinia enterocolitica YopH tyrosine phosphatase. fluorescence Ex485/Em525. inhibition, %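 (about 10 µM by stock and volumes)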. 140,000 tested, 0.16% active. AID 898;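 active means inhibition of 50% or more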;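 further: controls were vehicle for no effect and minimum signal wells for full effect; inactives centre near -20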
RecA intein inh: blocks M. tuberculosis RecA intein splicing; P9WHJ3; 290,000 tested, 0.75% active; cell-free RecA intein splicing, fluorescence; inhibition, %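 (about 9 µM by stock and volumes)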; AID 2221; in the data active means inhibition above about 30%; inconclusive means no clear call, values can overlap the other calls;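 further: 0% = vehicle wells and 100% = reference inhibitor control wells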
Target sequence (P9WHJ3 whole entry, looked up): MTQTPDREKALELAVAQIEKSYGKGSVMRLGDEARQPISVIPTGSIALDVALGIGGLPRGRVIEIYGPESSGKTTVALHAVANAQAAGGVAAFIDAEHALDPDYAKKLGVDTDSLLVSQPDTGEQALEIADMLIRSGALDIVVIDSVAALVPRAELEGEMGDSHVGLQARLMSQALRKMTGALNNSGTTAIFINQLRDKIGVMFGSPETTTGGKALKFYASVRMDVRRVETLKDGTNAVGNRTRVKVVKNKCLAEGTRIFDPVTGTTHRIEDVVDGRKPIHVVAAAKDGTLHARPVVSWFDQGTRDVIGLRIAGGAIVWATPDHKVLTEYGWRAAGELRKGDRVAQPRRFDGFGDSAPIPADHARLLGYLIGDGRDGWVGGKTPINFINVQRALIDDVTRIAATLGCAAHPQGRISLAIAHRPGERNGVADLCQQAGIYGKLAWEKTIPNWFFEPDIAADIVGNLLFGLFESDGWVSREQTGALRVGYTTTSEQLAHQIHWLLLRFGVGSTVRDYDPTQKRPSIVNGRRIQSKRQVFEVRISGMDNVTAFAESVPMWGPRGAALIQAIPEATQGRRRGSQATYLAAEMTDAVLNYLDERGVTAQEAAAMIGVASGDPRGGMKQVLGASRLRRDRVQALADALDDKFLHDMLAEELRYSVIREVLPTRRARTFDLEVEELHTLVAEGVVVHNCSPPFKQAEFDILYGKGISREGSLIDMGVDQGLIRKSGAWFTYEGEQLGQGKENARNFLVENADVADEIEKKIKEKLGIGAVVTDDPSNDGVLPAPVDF
Mtb betalactam: beta-lactam sensitization of Mtb H37Rv; inhibition, % at 25 µM; AID 434955; 330,000 tested, 0.27% active; M. tuberculosis H37Rv growth with meropenem, percent inhibition; hits of this screen are not shown here;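 active means about 74% or more and at least 40 points above the plate without the antibiotic, then above 30% in a dose series; inconclusive means first-round hits that could not be retested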;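 further: growth measured after seven days incubation then overnight dye step; 0% = bacteria only wells and 100% = bacteria with antibiotic; twin plates without the antibiotic show which effects depend on it; some results filed as inactive read as strong as hits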
Arbovirus anti: antivirals against arbovirus infection; arbovirus infection cell-based antiviral screen; inhibition, % at 10 µM; 200,000 tested, 0.37% active; AID 1251;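 active means inhibition from about 30%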;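 further: bluetongue infection of BSR cells; cell survival read as ATP light after 72 h; 0% = infected wells without compound and 100% = uninfected wells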
Arbovirus anti repeat: further read-out of Arbovirus anti, marked with its call; inhibition, %; measured here: 10K subset replicate screen; many hits read low in the repeat;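 first of two repeat runs on a subset; 0% = infected and 100% = uninfected wells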
Starred values were filed as active, the others as inactive; ? = inconclusive; nt = no result given. A portion of the library, so the mix of outcomes need not match the whole.

The first three records, ahead of the listing:
SMILES	Mtb H37Rv	YopH PTP inh	RecA intein inh	Mtb betalactam	Arbovirus anti	others
COc1cccc(NC(=O)CC2(CC(=O)O)CCCC2)c1	2%	-33	nt	4	7
COc1cccc(N2C(=O)[C@H]3C(C(=O)c4cnccn4)=NN[C@H]3C2=O)c1	-6%	nt	1.2	5	nt
CCOC(=O)C1=C(C)NC(=O)NC1c1ccc(N(C)C)cc1 (configuration not stated)	6%	-39	-3.2	nt	-6	Arbovirus anti repeat=3

This part in full, previewed entries included:
SMILES	Mtb H37Rv	YopH PTP inh	RecA intein inh	Mtb betalactam	Arbovirus anti	others
COc1cccc(NC(=O)CC2(CC(=O)O)CCCC2)c1	2%	-33	nt	4	7
COc1cccc(N2C(=O)[C@H]3C(C(=O)c4cnccn4)=NN[C@H]3C2=O)c1	-6%	nt	1.2	5	nt
CCOC(=O)C1=C(C)NC(=O)NC1c1ccc(N(C)C)cc1 (configuration not stated)	6%	-39	-3.2	nt	-6	Arbovirus anti repeat=3
CC1CCN(S(=O)(=O)c2cccc(C(=O)NC3CCCCC3)c2)CC1	nt	nt	-3.0	-3	nt
CCc1cccc(NS(=O)(=O)c2c(C)[nH]c(=O)[nH]c2=O)c1	nt	nt	-0.5	4	nt
COc1cc(NC(=S)NCCCN(C)C)c(OC)cc1NC(=O)c1ccco1	5%	nt	-2.1	-3	nt
O=C(O)C1C2CC2CN1C(=O)c1ccc(Cl)cc1Cl (configuration not stated)	1%	nt	-1.6	0	3
COc1cccc(CC(=O)Nc2ccccc2C(=O)N2CCOCC2)c1	-6%	-26	-3.0	-7	-1
CCOC(=O)C1=C(O)CSC1=Nc1ccc(C)cc1	8%	nt	-0.4	8	2
O=C(O)C1C2CCC(O2)C1C(=O)Nc1cccc(Cl)c1 (configuration not stated)	nt	nt	1.3	5	nt
Cc1c(C)n(C(=O)CSc2nc3ccccc3[nH]2)c2ccccc12	-4%	-3	4.7	-10	8
COc1ccc(/C=C2/C(=O)N(c3c(F)c(F)c(F)c(F)c3F)N=C2C)cc1	nt	nt	3.5	3	nt
O=S(=O)(Nc1ccc(-n2cnnn2)cc1)c1ccc(F)c(F)c1F	-6%	nt	30*	-1	nt
O=C1C=C(c2ccccc2)CC(c2ccc(F)cc2)C1 (configuration not stated)	3%	nt	8.8	-1	nt
CCCCN1CCNC[C@@H]1Cc1ccc(O)cc1	nt	nt	-2.4	-6	nt
COc1cc(C(=O)NC(CCSC)C(=O)OCC(=O)NC(=O)C2CCCCC2)cc(OC)c1OC (configuration not stated)	-6%	nt	1.5	-5	-3
NC(=O)NCCC1=CCCCC1	nt	-8	0.5	3	9
Cn1c(C(=O)O)c(S(=O)(=O)c2ccc(Cl)cc2)c2ccccc21	nt	nt	-0.3	0	nt
O=[N+]([O-])c1cccc(-c2cn3nc(-c4ccccc4)c(-c4ccccc4)nc3n2)c1	-4%	nt	-9.1	-5	nt
O=C(Cc1ccc(F)cc1)N/N=C/c1ccc(-c2ccc(Cl)c(C(=O)O)c2)o1	-6%	nt	-1.8	2	13
COc1ccc(NC(=O)CN(c2ccccc2C)S(C)(=O)=O)c(OC)c1	nt	nt	-1.0	-5	nt
COc1cccc(/C=C2\SC(=O)N(CCC(=O)NC3CCS(=O)(=O)C3)C2=O)c1 (configuration not stated)	nt	nt	0.7	-1	nt
O=C(C1=C[C@@H](c2ccc(Br)cc2)C[C@@H](OCCCCO)O1)N1CCN(Cc2ccc3c(c2)OCO3)CC1	-3%	nt	7.9	69	-18
O=C(CSc1nnnn1-c1ccc(F)cc1F)Nc1ccccc1F	nt	nt	-0.1	-5	nt
CCCO/N=C1/C(=O)N(c2ccccc2)c2ccccc21	1%	nt	8.0	5	-5
CCOC(=O)c1[nH]c(COC(=O)CCCOc2ccccc2)c(C(=O)OCC)c1C	7%	nt	1.1	10	nt
CCn1nccc1C(=O)Nc1ccc(S(=O)(=O)NC23CC4CC(CC(C4)C2)C3)cc1	6%	-16	nt	11	-37
CCOc1ccc(CCNC(=O)CSC(=S)N2CCCC2)cc1OCC	nt	nt	-1.3	-5	nt
N#CC/C(N)=N/Nc1nc2ccccc2nc1Cc1ccccc1	nt	nt	1.0	-7	nt
CCOC(=O)C1[C@H]2C(=O)N(C(C)c3ccc(OC)cc3)C[C@]23C=C[C@H]1O3 (some centres not stated)	-4%	-6	0.9	-11	9
COc1ccccc1CN1CCCC(C(=O)N2CCCCC2)C1 (configuration not stated)	-5%	nt	-2.2	2	nt
COc1ccc(CCNC(=O)C(=O)Nc2ccc3nc4n(c(=O)c3c2)CCCCC4)cc1OC	7%	nt	0.6	1	nt
NC(=O)CCNC(=O)c1ccc(Cl)cc1	-7%	-20	0.7	-9	3
COc1ccc(NC(=O)N(C2CCCCC2)C(C)c2cccnc2)c(OC)c1 (configuration not stated)	-5%	-4	-4.5	2	-1
C=C(CCC(=O)c1ccccc1)C(=O)c1ccccc1	4%	-27	1.1	100	-22
O=C(Nc1cnn(Cc2ccc(F)cc2)c1)c1cnccn1	-4%	-12	nt	1	-12
Cc1ccc2nc(NC(=O)C3CCCN3C(=O)OC(C)(C)C)sc2c1 (configuration not stated)	5%	nt	3.5	2	-6
O=C(COC(=O)c1cccs1)NCC1CCCCC1	18%	nt	-2.9	8	8
COCCN(C(=S)Nc1c(C)cc(C)cc1C)C(C)c1cccnc1 (configuration not stated)	-5%	-13	-2.1	6	-6
Cc1ccc(S(=O)(=O)N2CCN(S(=O)(=O)c3ccc4c(c3)OCCO4)CC2)cc1	2%	-38	-3.3	5	-5

In the list so far, these have an aryl thioether with sulfur outside any ring:
SMILES	Mtb H37Rv	YopH PTP inh	RecA intein inh	Mtb betalactam	Arbovirus anti	others
Cc1c(C)n(C(=O)CSc2nc3ccccc3[nH]2)c2ccccc12	-4%	-3	4.7	-10	8
O=C(CSc1nnnn1-c1ccc(F)cc1F)Nc1ccccc1F	nt	nt	-0.1	-5	nt

Following part
SMILES	Mtb H37Rv	YopH PTP inh	RecA intein inh	Mtb betalactam	Arbovirus anti	others
COc1ccc(C2=NN(C(=O)CCC(=O)O)C(c3cccs3)C2)cc1OC (configuration not stated)	-5%	nt	-0.1	0	-2
O=C(CCC(=O)N1CCSc2ccccc21)Nc1ccc(F)cc1	nt	nt	1.4	-1	nt
Cc1ccc(Oc2nc(CN3CCOCC3)nc3sc4c(c23)CCC(C)C4)cc1C (configuration not stated)	41%	-12	17	?	-39
CCOc1ccc(CCNC(=O)c2cnc(C)cn2)cc1OCC	nt	nt	-1.2	-3	nt
O=C(C1CCCCC1)N1CCCc2ccccc21	7%	-15	-3.7	14	9
COc1ccccc1CNC(=O)[C@H](C)NC(=O)C1CCN(C(=O)[C@@H](N)C(C)C)CC1	nt	nt	8.3	-3	nt
Cc1ccc(S(=O)(=O)Nc2ccccc2C=Nc2cccc(C)c2C)cc1	-4%	-16	-1.3	-8	-1
O=C(COc1ccccc1-c1ccccc1)N/N=C/c1cccnc1	1%	nt	-1.6	-2	-11
COc1cccc(N2C(=O)N(c3ccccc3Cl)C3CS(=O)(=O)CC32)c1 (configuration not stated)	-4%	-19	0.4	2	4
CCCc1nc(NCC2CCCO2)c2nnn(Cc3ccccc3)c2n1 (configuration not stated)	7%	-4	-0.3	72	-4
Cc1cccc(NC(=S)NC(C)C(c2ccccc2)N2CCN(C)CC2)c1C (configuration not stated)	6%	nt	1.3	-11	0
O=C(O)COc1ccc(NC(=O)c2ccc3c(c2)C(=O)N(C2CCCCC2)C3=O)cc1	nt	nt	-2.4	-1	nt
CS(=O)(=O)N(CC(=O)N1CCN(Cc2ccccc2)CC1)c1ccc2c(c1)OCCO2	-4%	-22	-2.9	-8	-1
COc1ccc(NC(=O)Cc2c[nH]c3ccccc23)cc1S(=O)(=O)N1CCOCC1	5%	nt	0.4	1	4
C=CCN(c1ccccc1)S(=O)(=O)c1cccc(C(=O)NCC(c2ccccc2OC)N2CCCC2)c1 (configuration not stated)	nt	nt	3.5	-11	nt
c1ccc2[nH]c(SCc3cn4ccccc4n3)nc2c1	4%	nt	3.1	-11	3
O=C(c1ccc(Cn2c(=O)[nH]c3ccccc3c2=O)cc1)N1CCN(c2ccccn2)CC1	7%	-21	-0.3	-4	7	Arbovirus anti repeat=-3
O=C1C2CCCN2C(c2ccccc2)N1c1ccc(F)cc1 (configuration not stated)	-7%	-16	2.9	-9	0	Arbovirus anti repeat=12
Cc1[nH]c2ccccc2c(=O)c1CN1CCCCC1	-5%	11	-4.8	-3	5	Arbovirus anti repeat=-2
O=C(N/N=C/c1ccsc1)c1c[nH]c2ccccc12	nt	nt	-2.9	10	nt

Sorted by SMILES length (largest number first): some entries from above
SMILES	Mtb H37Rv	YopH PTP inh	RecA intein inh	Mtb betalactam	Arbovirus anti	others
O=C(O)COc1ccc(NC(=O)c2ccc3c(c2)C(=O)N(C2CCCCC2)C3=O)cc1	nt	nt	-2.4	-1	nt
COc1ccc(NC(=O)Cc2c[nH]c3ccccc23)cc1S(=O)(=O)N1CCOCC1	5%	nt	0.4	1	4
Cc1cccc(NC(=S)NC(C)C(c2ccccc2)N2CCN(C)CC2)c1C (configuration not stated)	6%	nt	1.3	-11	0
O=C(N/N=C/c1ccsc1)c1c[nH]c2ccccc12	nt	nt	-2.9	10	nt

Following part:
SMILES	Mtb H37Rv	YopH PTP inh	RecA intein inh	Mtb betalactam	Arbovirus anti	others
O=C1CCOc2cc(OCc3ccccc3)ccc21	4%	-21	-0.9	-12	-14
CC(C(=O)N1CCCc2c1c(=O)oc1ccc(O)cc21)N1CCc2ccccc2C1 (configuration not stated)	4%	53*	6.3	0	1
CSc1ncc(-c2ccccc2)cn1	2%	nt	nt	-7	0
O=C(COC(=O)c1ccco1)Nc1nc2ccccc2s1	-1%	-38	-3.5	0	2
CCC(C)Sc1ccc(-c2nc3cnccn3c2NC2CCCCC2)cc1 (configuration not stated)	nt	nt	-80	100	nt
O=C(COC(=O)CCc1ccc(S(=O)(=O)N2CCOCC2)cc1)Nc1ncc(C(F)(F)F)cc1Cl	-4%	-26	3.9	0	3
CCOc1ccc(-n2nc3c(SCCN4CCCC4)nnc(C)c3c2C)cc1	19%	1	-1.0	-1	11
CCC(C)c1ccc(NC(=O)c2cccnc2)cc1 (configuration not stated)	40%	-18	-1.0	75	-10
O=C(COc1nsnc1N1CCOCC1)Nc1ccccc1Cl	nt	nt	-1.8	3	nt
Cc1cc(OCCNCCO)cc(C)c1Cl	-10%	-20	-0.1	-11	-16
Cc1cccnc1NC(=O)c1ccc(Cl)c(S(=O)(=O)N2CCCCCC2)c1	nt	nt	2.6	3	nt
CCc1ccc(-c2nc(CS(=O)CC(=O)NCCN3CCCCCC3)c(C)o2)cc1 (configuration not stated)	nt	nt	1.4	-1	nt
Cn1c(Cn2nnc3ccccc32)nnc1SCC(=O)Nc1nccs1	-10%	-20	8.6	-5	3
CSCc1ccc(C(=O)NCCSc2ccc(Br)cc2)cc1	nt	nt	4.0	-3	nt
CC(=O)Nc1cccc(NC(=O)c2csc(C)c2)c1	nt	nt	-0.3	-17	nt

Looked up by structure from the list above:
SMILES	Mtb H37Rv	YopH PTP inh	RecA intein inh	Mtb betalactam	Arbovirus anti	others
CC(=O)Nc1cccc(NC(=O)c2csc(C)c2)c1	nt	nt	-0.3	-17	nt
CCc1ccc(-c2nc(CS(=O)CC(=O)NCCN3CCCCCC3)c(C)o2)cc1 (configuration not stated)	nt	nt	1.4	-1	nt
CSCc1ccc(C(=O)NCCSc2ccc(Br)cc2)cc1	nt	nt	4.0	-3	nt
Cn1c(Cn2nnc3ccccc32)nnc1SCC(=O)Nc1nccs1	-10%	-20	8.6	-5	3
